Compound activity as filed in PubChem BioAssay.
PABP polyA inh: blocks human PABP binding to poly(A) RNA. fluorescence polarization. inhibition, % at 35 µM. actives 1% (n = 290,000). AID 2014;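 active means 50% or more with normal probe brightness, or confirmed in later tests; about a fifth of its hits are not listed in these tables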;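 further: calls also rest on retests at 20 µM and on dose response follow-up; controls were probe without protein and protein plus probe with vehicle; some compounds called inactive have numbers as strong as hits; many hits fall short of the cut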
UUG fidelity: modulators of start codon recognition fidelity in yeast | S. cerevisiae UUG-firefly luciferase reporter, luminescence/redox ratio | actives 0.13% (n = 350,000) | AID 602363 | activity score, % at 18.7 µM;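 active means replicate mean at a twofold rise or more, about +100% in these data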;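 further: firefly luciferase made from a UUG start codon reports start codon fidelity; reporter light over untreated wells divided by growth signal over untreated wells; some hits fall short of that in this replicate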
HIV Env fusion: inhibitors of HIV Env-mediated cell fusion; HeLa-JRFL Env/CEM21 cell fusion, luciferase; actives 1.1% (n = 360,000); inhibition, % at 12.3 µM;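 active means mean replicate inhibition score of at least 50 and every replicate individually at or above 50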;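 further: 0% = plate neutral controls and 100% = maraviroc near 300 nM; one replicate is shown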
MT1-MMP act inh: inhibitors of human MT1-MMP activation | P50281 | HT1080 RFP-PRO-GFP cells, GFP/RFP ratio fluorescence, overnight; percent of plate control window, DMSO zero | GFP/RFP ratio change, % at 20 µM | actives 0.061% (n = 360,000) | AID 651647;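 active means GFP/RFP ratio change of at least 30% with cell ATP level not reduced by more than half and red fluorescence within 50% of control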; further: strong numbers were not always called active
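Test system: HT1080 RFP-PRO-GFP cells; Benchmarks: DMSO and RFP-L50D-GFP cell wells; Timing: cells overnight before dosing, compound overnight, 37 °C, 5% CO2; Compound: one 20 µM compound dose with 1% DMSO; Read-out: GFP/RFP fluorescence ratio.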
CSC inhib: blocks cancer stem cells; cancer stem cell-like cells viability, luminescence; inhibition, % at 7.5 µM; actives 1.1% (n = 300,000);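 active means mean at 75% or more and at least half the replicates too; tested in HMLE shEcad cells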;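 further: 0% = median of negative and 100% = median of positive control wells; the first replicate is given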
Rce1 inhib: yeast Ras-converting enzyme inhibition; yeast membranes, quenched prenylated peptide cleavage fluorescence; AID 2563; Q03530; calls only; actives 0.27% (n = 290,000);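 active means fall in fluorescence gain of 50% or more versus controls, with final raw signal at or below 3038400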;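 further: plate controls were neutral control wells for no effect and wells lacking membranes for full effect; tested at 10 µM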
Target sequence (Q03530 whole entry, looked up): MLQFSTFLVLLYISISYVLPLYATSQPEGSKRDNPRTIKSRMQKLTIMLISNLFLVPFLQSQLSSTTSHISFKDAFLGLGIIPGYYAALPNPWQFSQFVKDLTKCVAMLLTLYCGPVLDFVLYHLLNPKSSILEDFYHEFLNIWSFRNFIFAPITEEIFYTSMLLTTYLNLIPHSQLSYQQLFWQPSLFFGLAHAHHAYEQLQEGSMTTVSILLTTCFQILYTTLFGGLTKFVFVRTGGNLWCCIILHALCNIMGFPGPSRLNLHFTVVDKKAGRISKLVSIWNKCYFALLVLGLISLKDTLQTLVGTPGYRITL
eIF4H FP inh: inhibitors of RNA binding by human eIF4H; Q15056; actives 0.94% (n = 290,000); inhibition, % at 35 µM; eIF4H fluorescence polarization binding assay;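 active means 50% or more with normal probe brightness, or confirmed in later tests; about a fifth of its hits are not listed in these tables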;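 further: calls also rest on retests at 20 µM and on dose response follow-up; 0% = protein and probe with vehicle and 100% = probe without protein; strong numbers were not always called active; many hits fall short of the cut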
MT1-MMP act inh RFP: second read-out of MT1-MMP act inh, no call of its own (marks repeat the call); RFP signal change, %; measured here: RFP expression control read;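 0 = vehicle wells; hits needed this value within 50% of zero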
* = called active by the depositor. These rows are one share of the data, so the mix of outcomes need not match the whole.

O=C(c1cccc(F)c1)N1CCN(CC2CC3C=CC2C3)CC1 (stereo unspecified) was read as PABP polyA inh 24.1, UUG fidelity -4.5, MT1-MMP act inh 0.8, CSC inhib 5.1, Rce1 inhib inactive, eIF4H FP inh -0.6 and MT1-MMP act inh RFP 3.4.
Screening Cn1c(=O)n(C)c2cc([N+](=O)[O-])c(N3CCN(C(=O)c4ccccc4)CC3)cc21 returned PABP polyA inh 10.9, UUG fidelity 5.2, HIV Env fusion 55.4*, MT1-MMP act inh 12.7, CSC inhib -11.0, Rce1 inhib inactive, eIF4H FP inh -11.0 and MT1-MMP act inh RFP -14.2.
Screening CCOC(=O)c1c(NC(=O)CSc2nccn2C)sc(C(=O)NC)c1C returned UUG fidelity -3.9, HIV Env fusion -21.3, MT1-MMP act inh 4.1, CSC inhib -6.6, Rce1 inhib inactive and MT1-MMP act inh RFP 1.8.
Screening O=C(Nc1cccnc1)C1Cc2c(-c3ccccc3Oc3ccccc3)ccnc2O1 (stereo unspecified) returned UUG fidelity -15.3, HIV Env fusion 19.5, MT1-MMP act inh -2.9 and MT1-MMP act inh RFP -18.4.
Screening CCOC(=O)c1cccc(OS(=O)(=O)Cc2ccccc2)c1 returned UUG fidelity 0.2, HIV Env fusion -5.6, MT1-MMP act inh -2.2, CSC inhib -4.4, Rce1 inhib inactive and MT1-MMP act inh RFP -2.1.
`COC(=O)c1ccccc1NC(=O)C1CCN(C(=O)c2cc(OC)c(OC)c(OC)c2)CC1` gave PABP polyA inh 1.4, UUG fidelity 7.2, MT1-MMP act inh 3.9, CSC inhib 0.6, Rce1 inhib inactive, eIF4H FP inh 2.9 and MT1-MMP act inh RFP 6.0.
For Cc1ccc(S(=O)(=O)N2CCN(C(=O)CSc3nnc(C)s3)C2)cc1 the results were PABP polyA inh 0.4, UUG fidelity -4.5, HIV Env fusion -18.2, MT1-MMP act inh -1.3, CSC inhib -19.7, Rce1 inhib inactive, eIF4H FP inh -6.1 and MT1-MMP act inh RFP 5.7.
`CCCCC(CC)CNCc1cccn1CCN1CCOCC1` (stereo unspecified) gave PABP polyA inh -1.2, UUG fidelity -7.6, HIV Env fusion -65.4, MT1-MMP act inh 3.6, CSC inhib -1.0, Rce1 inhib inactive, eIF4H FP inh -3.0 and MT1-MMP act inh RFP -1.1.
COC(=O)c1c(-c2ccc(OC)cc2)sc2ccc(N3CCOCC3)cc12 was read as UUG fidelity -1.4, HIV Env fusion -24.2, MT1-MMP act inh 16.5, CSC inhib 43.0 and MT1-MMP act inh RFP -3.9.
For Cc1ccc(CNC(=O)C23CN(Cc4ccccc4)CC2C(c2ccc([N+](=O)[O-])cc2)=NO3)cc1 (stereo unspecified) the results were PABP polyA inh -2.7, UUG fidelity -41.1, HIV Env fusion 12.6, MT1-MMP act inh -8.6, CSC inhib 8.4, Rce1 inhib inactive, eIF4H FP inh -2.5 and MT1-MMP act inh RFP -10.0.
Screening Clc1ccc(OCc2nnc(SCc3nnc(-c4ccccc4)o3)o2)c(Cl)c1 returned PABP polyA inh -7.3, UUG fidelity -4.0, HIV Env fusion -34.8, MT1-MMP act inh 3.2, CSC inhib 0.2, Rce1 inhib inactive, eIF4H FP inh 10.8 and MT1-MMP act inh RFP 3.5.
CC1Cc2ccccc2N1C(=O)C(C)n1cc(C(F)(F)F)cc(Cl)c1=O (stereo unspecified) was read as UUG fidelity -9.7, MT1-MMP act inh -1.6, CSC inhib -3.2 and MT1-MMP act inh RFP -5.8.
CC(C)NC(=O)C(=O)NCCc1ccc(Cl)cc1 was read as PABP polyA inh 1.6, UUG fidelity -1.1, MT1-MMP act inh 1.3, CSC inhib -2.3, Rce1 inhib inactive, eIF4H FP inh -0.2 and MT1-MMP act inh RFP 0.6.
Screening c1ccc2nc3c(cc2c1)CCCCCC3 returned PABP polyA inh 8.1, UUG fidelity -21.3, HIV Env fusion -11.5, MT1-MMP act inh -2.3, CSC inhib 44.6, Rce1 inhib inactive, eIF4H FP inh -10.9 and MT1-MMP act inh RFP -1.8.
`COC(=O)c1cc2oc(C)cc2n1CC(=O)Nc1ccc(C)c(C)c1` gave PABP polyA inh 0.0, UUG fidelity -11.7, MT1-MMP act inh 4.5, Rce1 inhib inactive, eIF4H FP inh 1.6 and MT1-MMP act inh RFP 3.2.
For O=C(Cc1csc(-c2ccccc2)n1)NCc1ccco1 the results were PABP polyA inh 11.2, UUG fidelity -17.6, HIV Env fusion -2.7, MT1-MMP act inh 0.6, Rce1 inhib inactive, eIF4H FP inh 10.4 and MT1-MMP act inh RFP 3.5.
`O=C(CN1CCN(Cc2ccccc2F)C1=O)NCC1CCCO1` (stereo unspecified) gave PABP polyA inh 1.0, UUG fidelity -8.0, HIV Env fusion 12.3, MT1-MMP act inh -0.4, CSC inhib -4.7, Rce1 inhib inactive, eIF4H FP inh -9.3 and MT1-MMP act inh RFP 4.8.
`O=C(Nc1ccc2c(c1)OCCO2)C1CCN(S(=O)(=O)c2cccc3nsnc23)CC1` gave PABP polyA inh 2.6, UUG fidelity -10.6, MT1-MMP act inh -0.5, CSC inhib -7.9, Rce1 inhib inactive, eIF4H FP inh -1.8 and MT1-MMP act inh RFP -3.8.
For Cc1[nH]c2ccc(CNS(=O)(=O)c3ccc(S(=O)(=O)N4CCOCC4)cc3)cc2c1C the results were PABP polyA inh -7.3, UUG fidelity -1.3, MT1-MMP act inh 3.2, CSC inhib -2.1, Rce1 inhib inactive, eIF4H FP inh -3.0 and MT1-MMP act inh RFP 0.3.
For CCOc1ccc(/C(CCC(=O)O)=N/NC(=S)NCCc2ccccc2)cc1 the results were PABP polyA inh -8.9, HIV Env fusion -19.6, MT1-MMP act inh 2.1, CSC inhib 8.3, Rce1 inhib inactive, eIF4H FP inh -0.9 and MT1-MMP act inh RFP 4.8.
Screening CCc1nc2sc3c(c2c(=O)n1N)CCC3 returned PABP polyA inh 3.7, UUG fidelity 0.6, MT1-MMP act inh 3.2, CSC inhib 4.7, Rce1 inhib inactive, eIF4H FP inh -8.1 and MT1-MMP act inh RFP -0.4.
Screening O=C(NCCc1cnc[nH]1)c1ccc(-c2ccccc2)cc1 returned PABP polyA inh -0.2, UUG fidelity -17.7, HIV Env fusion -25.2, MT1-MMP act inh 2.1, CSC inhib 1.8, Rce1 inhib inactive, eIF4H FP inh 2.0 and MT1-MMP act inh RFP -1.2.
`CCOC(=O)COn1c(=O)c(-c2cccs2)[n+]([O-])c2ccccc21` gave PABP polyA inh 0.1, UUG fidelity -1.7, MT1-MMP act inh -4.1, CSC inhib -5.3, Rce1 inhib inactive, eIF4H FP inh -3.8 and MT1-MMP act inh RFP 12.8.
Screening COc1cc(NC(=S)N2CCN(C(=O)c3ccco3)CC2)c(OC)cc1Cl returned PABP polyA inh -8.9, HIV Env fusion 1.8, MT1-MMP act inh -0.4, CSC inhib 3.3, Rce1 inhib inactive, eIF4H FP inh -3.8 and MT1-MMP act inh RFP 2.3.
For COCCCn1c(C(=O)Nc2ccc3c(c2)OCO3)cc2c(=O)n3ccccc3nc21 the results were PABP polyA inh 4.3, UUG fidelity -16.9, HIV Env fusion 1.9, MT1-MMP act inh -2.6, CSC inhib -6.3, Rce1 inhib inactive, eIF4H FP inh 0.3 and MT1-MMP act inh RFP -5.0.
`Cc1ccccc1C(=O)Nc1ccccc1NC(=O)c1ccccc1Br` gave PABP polyA inh 15.3, UUG fidelity -8.1, HIV Env fusion 14.2, MT1-MMP act inh 2.5, CSC inhib -18.9, Rce1 inhib inactive, eIF4H FP inh 5.7 and MT1-MMP act inh RFP 0.2.
CC(C)(C)N(NC(=O)OCc1ccccc1)C(=O)c1ccccc1 was read as PABP polyA inh -7.6, UUG fidelity -3.3, HIV Env fusion -3.9, MT1-MMP act inh 0.8, Rce1 inhib inactive, eIF4H FP inh -5.2 and MT1-MMP act inh RFP -2.5.
`C#CNC(=O)C1(CC=C)CCNCC1` gave UUG fidelity 0.7, HIV Env fusion -11.2, MT1-MMP act inh 1.9, CSC inhib -3.2, Rce1 inhib inactive and MT1-MMP act inh RFP 4.4.
For NC(=O)N/N=C/c1cn(-c2ccccc2)nc1-c1ccccc1 the results were PABP polyA inh -6.3, HIV Env fusion -25.8, MT1-MMP act inh 2.4, CSC inhib 20.3, Rce1 inhib inactive, eIF4H FP inh 2.4 and MT1-MMP act inh RFP 3.4.
`O=C(CSC(=S)N1CCSCC1)c1ccccc1` gave PABP polyA inh 4.0, HIV Env fusion -104.3, MT1-MMP act inh -2.0, Rce1 inhib inactive, eIF4H FP inh -7.3 and MT1-MMP act inh RFP -2.3.
For COc1cc(/C=C/C2=NNC(=O)CC2)cc(OC)c1OC the results were PABP polyA inh -0.6, UUG fidelity -2.9, HIV Env fusion 73.4*, MT1-MMP act inh 2.5, Rce1 inhib inactive, eIF4H FP inh -3.2 and MT1-MMP act inh RFP 1.7.
For CCN(CC)CCCn1c(C)cc2c(c1=O)C(c1cc(OC)c(OC)cc1OC)C(C#N)=C(N)O2 (stereo unspecified) the results were PABP polyA inh 2.6, UUG fidelity -11.9, MT1-MMP act inh 3.1, CSC inhib -14.3, eIF4H FP inh 7.1 and MT1-MMP act inh RFP 1.6.
For CC(C)C1CC2=C(C(=O)OC(C)(C)O2)C(c2ccc(Cl)cc2)O1 (stereo unspecified) the results were UUG fidelity -5.4, HIV Env fusion -22.2, MT1-MMP act inh 3.4 and MT1-MMP act inh RFP -3.6.
Screening CCc1cc2c(N3CCN(C(=O)c4ccco4)CC3)ncnc2s1 returned PABP polyA inh 7.8, UUG fidelity -14.1, HIV Env fusion 24.2, MT1-MMP act inh 3.1, Rce1 inhib inactive, eIF4H FP inh -3.0 and MT1-MMP act inh RFP -7.2.
For CCc1c(C(=O)NN2C(=O)C3CCCCC3C2=O)csc1C (stereo unspecified) the results were PABP polyA inh 2.4, HIV Env fusion 6.3, MT1-MMP act inh 3.3, CSC inhib -14.0, Rce1 inhib inactive, eIF4H FP inh 5.9 and MT1-MMP act inh RFP 6.1.
For CN1/C(=C\C(=O)C[n+]2cccc(Br)c2)C(C)(C)c2ccccc21 the results were PABP polyA inh -10.3, HIV Env fusion 15.7, MT1-MMP act inh -2.7, CSC inhib 19.3, Rce1 inhib inactive, eIF4H FP inh 0.7 and MT1-MMP act inh RFP -27.3.
Screening O=c1c2ccc([N+](=O)[O-])cc2ncn1Cc1ccccc1C(F)(F)F returned PABP polyA inh 3.1, HIV Env fusion 4.8, MT1-MMP act inh -3.5, CSC inhib -4.8, Rce1 inhib inactive, eIF4H FP inh -2.6 and MT1-MMP act inh RFP -3.1.
`Cc1cccc(/C=C\c2nc3ccccc3c(=O)[nH]2)c1` gave PABP polyA inh 8.9, UUG fidelity -30.3, HIV Env fusion -194.2, MT1-MMP act inh -3.5, CSC inhib 58.5, Rce1 inhib inactive, eIF4H FP inh -0.8 and MT1-MMP act inh RFP -11.5.
`CCCn1c(NCc2cc(C)ccc2O)nc2ccccc21` gave PABP polyA inh -0.8, UUG fidelity -21.4, HIV Env fusion -101.8, MT1-MMP act inh 0.6, CSC inhib 2.3, Rce1 inhib inactive, eIF4H FP inh -0.7 and MT1-MMP act inh RFP -3.8.
Screening CC(C)NC(=O)c1ccc(-n2nc(C(F)(F)F)c3c2CCCC3)cc1 returned PABP polyA inh 3.5, HIV Env fusion 9.5, MT1-MMP act inh 2.8, CSC inhib 11.8, Rce1 inhib inactive, eIF4H FP inh -5.8 and MT1-MMP act inh RFP 1.3.
Screening O=C(O)c1cccc(-n2cccc2/C=C2/NC(=O)N(c3cccc(Cl)c3)C2=O)c1 returned PABP polyA inh 81.0*, HIV Env fusion 0.0, MT1-MMP act inh -1.0, CSC inhib -11.1, Rce1 inhib inactive, eIF4H FP inh 96.6* and MT1-MMP act inh RFP 3.4.
